H5N1 antiviral: MDCK cell protection from H5N1 avian flu; cytopathic effect, luminescence, 72 h; active compounds read high; no value below 0 was filed and about half of the inactive calls have no number; reference of the scale not given here; inhibition, % at 50 µM; hit rate 0.07% among 96,000; in the data active = inhibition above about 25%
Numbers without * were called inactive; i = inactive. Only part of the results is shown; rates above refer to the full screens.

SMILES | H5N1 antiviral
O=C(COC(=O)CCc1ccc(S(=O)(=O)N2CCOCC2)cc1)Nc1ncc(C(F)(F)F)cc1Cl | 0.2
Cc1cc(OCCNCCO)cc(C)c1Cl | i
O=C(COC(=O)c1ccco1)Nc1nc2ccccc2s1 | 0.3
CC(C(=O)N1CCCc2c1c(=O)oc1ccc(O)cc21)N1CCc2ccccc2C1 (stereo unspecified) | 3.8
COc1cc(S(=O)(=O)N2CCCCC2)ccc1NC(=O)Cc1ccccc1 | 0.7
O=C(Nc1nnc(CC2=CCCCC2)s1)c1cccs1 | i
CCC(C)c1c(O)nc(SCc2ccccc2)[nH]c1=O (stereo unspecified) | i
CCCCCn1c(N)c(-c2nc3ccccc3s2)c2c([N+](=O)[O-])nn(CC)c(=O)c21 | 0.3
O=C(c1cccs1)N1CCN(CCCc2ccccc2)CC1 | i
CC1=C(C(=O)OC(C)C)C(C2CC=CCC2)NC(=O)N1 (stereo unspecified) | 0.6
Cn1cnnc1SCc1ccc(C#N)cc1Cl | 0.6
CCOC(=O)c1ccc(N2C(=O)c3n[nH]c(C)c3C2c2ccccn2)cc1 (stereo unspecified) | 2.9
O=C(CNS(=O)(=O)c1ccccc1Br)OCC(=O)N1CCc2ccccc21 | i
CC1CCN(CCCn2c(=S)[nH]c3ccc(N4CCOCC4)cc3c2=O)CC1 | 0.8
COc1ccc(NC(=O)CSc2ccc3c4c(cccc24)C(=O)c2ccccc2-3)cc1 | 0.0
Cc1ccc(NC(=O)CN2CCC(C(=O)c3ccc4c(c3)OCCO4)CC2)cc1 | i
CCC(C)(C)n1nnnc1C(C(C)C)N1CCSCC1 (stereo unspecified) | 0.7
C[C@H](NC(=O)OC(C)(C)C)c1nnc(SCC(N)=O)o1 | 0.5
Cc1ccc(Sc2nc(-c3ccccc3)ccc2C#N)cc1 | 0.7
O=C(NCc1ccco1)C(c1cccs1)N(C(=O)C1COc2ccccc2O1)c1cccc(O)c1 (stereo unspecified) | i
COc1cccc(NC(=O)CC2(CC(=O)O)CCCC2)c1 | 0.6
CCOC(=O)C1=C(C)NC(=O)NC1c1ccc(N(C)C)cc1 (stereo unspecified) | 0.2
CCOc1cc(C(=O)NC(C)COC)cc(OCC)c1OCC (stereo unspecified) | i
Cc1c(C)n(C(=O)CSc2nc3ccccc3[nH]2)c2ccccc12 | i
CC1CN(C2CCN(C(=O)COc3ccc(Cl)cc3)CC2)CC(C)O1 (stereo unspecified) | i
O=C(OCC(=O)N1CCN(c2ccccc2)CC1)c1ccc2ncsc2c1 | 0.8
OCc1ccccc1CNCc1ccccc1 | i
COc1ccc(C(C)=O)cc1COC(=O)Cc1n[nH]c(=O)c2ccccc12 | 2.1
CC(=O)c1c(C)oc2ccc(N(C(C)=O)S(=O)(=O)c3ccc(Cl)c([N+](=O)[O-])c3)cc12 | i
COCCNC(=O)COc1ccc(Oc2ccccc2)cc1 | 0.4
Cc1cccnc1-n1c(CN2C(=O)c3ccccc3C2=O)nc2ccccc2c1=O | i
Cc1cccc2[nH]c3c(=O)n(CCN4CCNCC4)cnc3c12 | i
Cn1c(=O)c2c(ncn2CC(=O)Nc2ccccc2Sc2ccccc2)n(C)c1=O | 2.6
CCOC(=O)c1cc(CC)sc1NC(=O)c1ccc(N2CCOCC2)c([N+](=O)[O-])c1 | i
O=C(CCn1c(=S)[nH]c2ccccc2c1=O)NCC1CCCO1 (stereo unspecified) | 0.6
COc1cc(-c2nnc(COC(=O)CSc3cc(C)c4ccccc4n3)o2)cc(OC)c1OC | 0.3
CC(C)n1c(=S)[nH]c2ccccc21 | 0.8
CCOC(=O)NC(CC(=O)O)c1ccc(OC)c(OC)c1 (stereo unspecified) | i
COCCn1c(-c2ccco2)nc2nc3ccccc3nc21 | 4.3
Cc1ccccc1OCc1nnc(SCC(=O)N2c3ccccc3Sc3ccc(Cl)cc32)o1 | 0.5

The closing 6 compounds of the section before are carried over, then new ones follow.
SMILES | H5N1 antiviral
O=C(CCn1c(=S)[nH]c2ccccc2c1=O)NCC1CCCO1 (stereo unspecified) | 0.6
COc1cc(-c2nnc(COC(=O)CSc3cc(C)c4ccccc4n3)o2)cc(OC)c1OC | 0.3
CC(C)n1c(=S)[nH]c2ccccc21 | 0.8
CCOC(=O)NC(CC(=O)O)c1ccc(OC)c(OC)c1 (stereo unspecified) | i
COCCn1c(-c2ccco2)nc2nc3ccccc3nc21 | 4.3
Cc1ccccc1OCc1nnc(SCC(=O)N2c3ccccc3Sc3ccc(Cl)cc32)o1 | 0.5
CC1CCC(NC(=O)c2ccc3nc[nH]c3c2)CC1 (stereo unspecified) | 3.8
O=C(CSc1oc(-c2cccs2)nc1S(=O)(=O)c1ccc(F)cc1)NCC1CCCO1 (stereo unspecified) | 0.2
CCCc1nc(SCC(=O)Nc2cc(C)on2)c2ccccc2n1 | i
COc1ccc(OCc2nnc3n2N=C(c2ccc(Br)cc2)CS3)cc1 | 1.1
COCC(=O)N(Cc1ccco1)c1nnc(C2CCOC2)s1 (stereo unspecified) | i
O=C(Nc1cccnc1)c1c(O)c2c(n(Cc3ccccc3)c1=O)CCCC2 | 1.0
COc1ccccc1N(C)S(=O)(=O)c1ccc(C(=O)NCC(C)C)cc1 | i
Cc1ccc(N(c2ncnc(N)c2[N+](=O)[O-])C2CCCCC2)cc1 | 1.4
O=C(Nc1ccc(Cl)cc1)N1CC=CCC1 | i
O=C(Nc1nnc(CCOCCOCCc2nnc(NC(=O)c3ccco3)s2)s1)c1ccco1 | 1.5
Cc1ccc(C(Sc2ccccc2)C(Cn2cncn2)C(=O)c2ccccc2)cc1 (stereo unspecified) | 0.5
Nc1c(C(=O)NCc2ccco2)sc2nc(N3CCOCC3)c3c(c12)CCCC3 | 1.1
CCOc1cc(CNCCc2ccc(S(N)(=O)=O)cc2)ccc1OCC(=O)NC(C)(C)C | 0.3
O=c1nc(N2CCCCCC2)nc(N2CCCCCC2)[nH]1 | 0.4
CC(=O)Nc1nc(=S)ss1 | i
O=C(COc1ccc(Br)cc1)Nc1ccncc1 | 0.7
Cc1ccc(C(=O)NCc2ccccn2)c(Cl)c1 | 0.2
COc1cc(/C=C(/C#N)c2ccccc2)ccc1Oc1ccc([N+](=O)[O-])cn1 | i
O=C(CN1C(=O)COc2ccccc21)N1CCc2ccccc21 | i
Fc1ccccc1COc1ccc(Br)cc1CNCc1ccncc1 | i
COC(=O)c1ccccc1NC(=O)CSc1nnc(-c2ccncc2)o1 | i
O=C(NCc1ccc2c(c1)OCO2)c1ccc(C2SCC(=O)N2Cc2ccco2)cc1 (stereo unspecified) | 1.2
COc1ccc(CCNCc2csc3nc4ccccc4n23)cc1OC | i
O=C(c1n[nH]c2c1CCCC2)n1ccnc1 | 0.4
Cc1cc(NCc2ccco2)nc2cc(O)ccc12 | 4.1
COC(=O)c1[nH]c2ccccc2c1NS(=O)(=O)c1ccc(OC)cc1OC | i
Cc1ccnc(NCn2nnc3ccccc32)c1 | i
CC1CCN(CC(=O)Nc2ccccc2C#N)CC1 | 3.1
O=C(NC1CCCCC1)C1CCCN1C(=O)NCc1ccccc1 (stereo unspecified) | i
Cc1cc(C)n(-c2nc(NCC3CCCO3)c3c4c(sc3n2)COC(C)(C)C4)n1 (stereo unspecified) | 0.6
CC(NS(=O)(=O)c1ccc(OCC(=O)N2CCOCC2)c(Cl)c1)c1ccccc1 (stereo unspecified) | i
Cn1c(=O)n(Cc2ccco2)c(=N)c2c3c(sc21)CCC3 | 1.0
CS(=O)(=O)N1CCC(C(=O)Nc2ccccc2Sc2ccccc2)CC1 | i
Cc1cc(NC(=O)c2ccc(NC(=O)CC(C)C)cc2)no1 | 0.5
O=C(Cn1c(=O)n(CCC(=O)N2CCc3ccccc3C2)c(=O)c2ccccc21)NCC1CCCO1 (stereo unspecified) | 0.7
COc1ccc(-c2ccc(-c3noc(-c4ccccc4)n3)c(OC)n2)cc1 | i
Cc1ccccc1Cn1c(=N)n(CC(=O)c2ccco2)c2ccccc21 | i
CCOC(=O)C1CCN(c2c(N3CCN(c4ccccc4OC)CC3)c(=O)c2=O)CC1 | i
O=C1Nc2ccc([N+](=O)[O-])cc2C1(O)N1CCCCC1 (stereo unspecified) | 0.4
CCOC(=O)C(C)Sc1nnc(-c2ccccc2O)n1-c1ccc(C)cc1 (stereo unspecified) | i
COc1ccccc1CC(=O)Nc1cc(Cl)ccc1O | 2.9
N#Cc1cc2c(nc1SCC(=O)Nc1nccs1)CCCCC2 | i
O=C(CSc1nnc(CNc2cccc(Cl)c2)o1)OC1CCCCC1 | i
CCN(CC(=O)Nc1ccccc1OC)C(=O)Cn1cnc2ccccc2c1=O | i
NC(=O)C1(N2CCCCC2)CCN(c2nc(-c3ccc(Br)cc3)cs2)CC1 | i
COc1ccc(CN2CCC(C(=O)NCCc3ccc(OC)c(OC)c3)CC2)c(OC)c1 | i
CCOc1cc(N2CCOCC2)c(OCC)cc1NC(=O)CN1C(=O)NC(Cc2ccccc2)C1=O (stereo unspecified) | i
COc1cc(NS(=O)(=O)c2ccc(NC(=O)COc3ccc(C)cc3C)cc2)nc(OC)n1 | 0.6
c1cncc(-c2cccnc2)c1 | 3.7
O=c1[nH]c(Nc2ccccc2)cc2ccccc12 | i
COc1ccc(N(CC(=O)Nc2cccc(C(C)=O)c2)S(C)(=O)=O)cc1OC | i
COc1ccc2cc(C#N)c(SCC(=O)N3CCCC3)nc2c1 | 1.5
Cc1sc2ncnc(NCc3cccs3)c2c1C | 4.4
CCOC(=O)c1[nH]c2ccccc2c1NC(=O)C(CC)CC | 1.3
CC1Cc2ccccc2N1C(=O)Cc1cccs1 (stereo unspecified) | 0.2
Cc1nc2sc(C(c3cccc(F)c3)N3CCOCC3)c(O)n2n1 (stereo unspecified) | 0.4
Cc1ccc(-n2c(SCC(=O)Nc3ccc4cn[nH]c4c3)nnc2-c2ccco2)cc1 | 0.4
O=C(O)COc1ccc(C(=O)Cc2ccc3c(c2)OCCCO3)c(O)c1 | i
Cc1cccc(N2CCN(C(c3ccccc3)c3nnnn3CC3CCCO3)CC2)c1C (stereo unspecified) | i
CCOc1ccc2c(c1)-c1c(ssc1=S)C(C)(C)N2 | i

Among those listed so far, these contain a cyano group:
SMILES | H5N1 antiviral
Cn1cnnc1SCc1ccc(C#N)cc1Cl | 0.6
Cc1ccc(Sc2nc(-c3ccccc3)ccc2C#N)cc1 | 0.7
COc1cc(/C=C(/C#N)c2ccccc2)ccc1Oc1ccc([N+](=O)[O-])cn1 | i
CC1CCN(CC(=O)Nc2ccccc2C#N)CC1 | 3.1
N#Cc1cc2c(nc1SCC(=O)Nc1nccs1)CCCCC2 | i
COc1ccc2cc(C#N)c(SCC(=O)N3CCCC3)nc2c1 | 1.5

(cont.)
SMILES | H5N1 antiviral
O=C(NCc1ccc2c(c1)OCO2)c1ccc(N2CCCC2=O)cc1 | i
COC(=O)c1c[nH]n2c(=O)c(Cc3ccc(F)cc3Cl)c(C)nc12 | i
COc1ccccc1NS(=O)(=O)c1cc([N+](=O)[O-])ccc1N/N=C/c1c[nH]c2ccccc12 | i
Cn1nnnc1SCc1ccc(C(=O)Nc2ccccc2F)cc1 | i
COc1cccc(OC)c1C(=O)N1CCN(Cc2ccccc2C(F)(F)F)CC1 | i
CC1=C(C#N)C(C)C2=C(CC(C)(C)CC2=O)N1 (stereo unspecified) | 0.8
Cn1c(=O)[nH]c(=O)c2c1nc(SCCN1CCCCC1)n2Cc1ccccc1 | 3.8
Cc1ccc(S(=O)(=O)c2c(N)n(CCCO)c3nc4ccccc4nc23)cc1 | 0.9
COc1ccc(Cn2nnnc2C(c2cccs2)N2CCN(c3ccc([N+](=O)[O-])cc3)CC2)cc1 (stereo unspecified) | 0.3
COC(=O)Cn1cc(C(=O)c2cccs2)c2ccccc21 | 2.3
CCOc1ccc(NC(=O)CCNS(=O)(=O)c2ccc(Br)s2)cc1 | 1.1
CCOC(=O)c1nc(Nc2ccc(C(=O)O)cc2)c2ccccc2n1 | 0.1
Cc1nn(C)c(C)c1NC(=O)c1ccc(S(=O)(=O)N(C)C)cc1 | i
O=C(NC1=NCCS1)c1ccc(-c2ccc(Cl)cc2)o1 | i
O=C(Nc1ccc(F)cc1)NC1(C(=O)NCc2cccs2)CCCCC1 | i
CCc1ccc2c(c1)c1nc(C)sc1n2CC(=O)OC | i
C=CCn1c(SCC(=O)c2ccc(Br)cc2)nnc1C(CC(C)C)NC(=O)c1cccs1 (stereo unspecified) | i
Cc1nc2ccccc2c(=O)n1/N=C/c1ccccc1 | 3.2
O=C(COc1ccc(Cl)cc1Cl)Nc1ccc(Cl)cn1 | i
O=C1COc2ccc(C(=O)CSc3nnnn3-c3ccccc3)cc2N1 | i
COc1ccccc1NC(=O)CCN1CCN(Cc2ccccc2)CC1 | 0.1
CCOc1ccc(N2C(=O)c3ccccc3C2=O)cc1 | i
Cc1ccn2cc(CCNS(=O)(=O)c3ccc(F)c(C(F)(F)F)c3)nc2c1 | 0.6
Cn1c(SCC(=O)OCC(=O)c2ccccc2)nnc1-c1cccs1 | i
c1ccc(OCCn2c(-c3ccco3)nc3ccccc32)cc1 | 0.9
CCOC(=O)C(O)(CCC(O)(C(=O)OCC)C(=O)OCC)C(=O)OCC | i
O=C(Nc1ccsc1C(=O)NC1CCCCC1)c1ccccc1 | i
CCOc1cccc2cc(C(=O)NCc3cccnc3)c(=O)oc12 | i
Cc1ccc(C2CC(c3ccc(Cl)cc3)n3nc(N)nc3N2)cc1 (stereo unspecified) | i
CCCCOc1ccc(-c2ncc(C(=O)O)c(C)n2)cc1 | i

Quoted at random: 5 entries already listed
SMILES | H5N1 antiviral
Cn1c(SCC(=O)OCC(=O)c2ccccc2)nnc1-c1cccs1 | i
O=C(Nc1ccsc1C(=O)NC1CCCCC1)c1ccccc1 | i
COc1ccccc1NC(=O)CCN1CCN(Cc2ccccc2)CC1 | 0.1
CCOc1ccc(N2C(=O)c3ccccc3C2=O)cc1 | i
Cc1ccc(C2CC(c3ccc(Cl)cc3)n3nc(N)nc3N2)cc1 (stereo unspecified) | i

Screening data: PubChem BioAssay, SRMLSC
